Vaccinia mCherry – qHTS for Stage-Specific Inhibitors of Vaccinia Orthopoxvirus: mCherry Reporter Primary qHTS; Vaccinia virus mCherry reporter infection, fluorescence; about a quarter of the inactives have no number; Potency, µM (top dose mostly 36.5 µM), for the others: at the highest dose activity change, negative = inhibition, hits mostly inhibitors; actives 0.63% (n = 310,000); active = well fitted inhibition curve with a large enough effect; inconclusive = small, poorly fitted or top-dose-only effect; inactive = no such curve, though single readings can be large or run the other way; tested in A549 cells; also: nearly all actives have a fitted effect of over 35% in size; inactives centre near -10
VACV Venus inh – qHTS for Stage-Specific Inhibitors of Vaccinia Orthopoxvirus: Venus Reporter Primary qHTS. actives 0.46% (n = 330,000). Potency, µM (series often up to 36.5 µM), inactives show top-dose activity change, negative = inhibition, most hits filed as inhibitors. Vaccinia virus Venus reporter expression, fluorescence; active means well fitted inhibition curve with a large enough effect; inconclusive means small, poorly fitted or top-dose-only effect; inactive means no such curve, though single readings can be large or run the other way; tested in A549 cells; also: nearly all actives have a fitted effect of over 30% in size; inactives centre near -10
An asterisk follows results filed as active; i = inactive; ? = inconclusive; / = not tested or not shown; & = joins results of further samples. % is scaled to controls: 0 for no effect and ±100 for the full control effect; potency is read from the fitted curve at half-maximal effect.

Preview (six entries):
Compound	VACV Venus inh	Vaccinia mCherry
CC(C)(C)OC(=O)NCCc1onc(-c2ccc([N+](=O)[O-])cc2)c1C(=O)O	-3%	0%
O=S(=O)(c1ccc(Cl)cc1)c1nc(-c2ccccc2Br)oc1N1CCOCC1	-2%	-18%
O=C(CCC(=O)N1CCN(c2ccccc2F)CC1)c1ccc(F)cc1	-4%	i
CCOP(=O)(Nc1cccc2oc(=O)c3ccccc3c12)OCC	-23%	i
Cc1cccc(-c2nc(CN3CCCC(C(=O)N4CCN(c5cc(Cl)ccc5C)CC4)C3)c(C)o2)c1 (stereo not drawn)	-14%	-11%
O=C(C1=C[C@@H](c2ccc(C(F)(F)F)cc2)C[C@@H](OCCCCO)O1)N1CCOCC1	-17%	i

The whole of this part, from the first entry:
Compound	VACV Venus inh	Vaccinia mCherry
CC(C)(C)OC(=O)NCCc1onc(-c2ccc([N+](=O)[O-])cc2)c1C(=O)O	-3%	0%
O=S(=O)(c1ccc(Cl)cc1)c1nc(-c2ccccc2Br)oc1N1CCOCC1	-2%	-18%
O=C(CCC(=O)N1CCN(c2ccccc2F)CC1)c1ccc(F)cc1	-4%	i
CCOP(=O)(Nc1cccc2oc(=O)c3ccccc3c12)OCC	-23%	i
Cc1cccc(-c2nc(CN3CCCC(C(=O)N4CCN(c5cc(Cl)ccc5C)CC4)C3)c(C)o2)c1 (stereo not drawn)	-14%	-11%
O=C(C1=C[C@@H](c2ccc(C(F)(F)F)cc2)C[C@@H](OCCCCO)O1)N1CCOCC1	-17%	i
CCCCN1C[C@H](CSC)[C@@H](CC(=O)Nc2ccc(Br)cc2)C1=O	-15%	-3%
Cc1ccc(O)c(NC(=O)c2cc(-c3ccc(F)cc3)no2)c1	-12%	-4%
COc1ccc(N2CCN(CCCn3cnc4c(SC)ncnc43)CC2)cc1	-23%	-21%
CCOc1ccc(NCC(=O)c2ccc(C)cc2)cc1	-27%	-23%
COCC(C)NC(=O)c1nn(Cc2ccccc2)c(=O)c2ccccc12 (stereo not drawn)	-10%	-11%
O=C(NCc1cccs1)C1CCCN(S(=O)(=O)c2cccs2)C1 (stereo not drawn)	-4%	/
Cc1ccc(OCC(=O)Nc2ccc(S(=O)(=O)N3CCCC3)cc2)cc1	-11%	i
CCOc1ccc(NC(=O)Cn2cnc3nc4c(cc3c2=O)CCCC4)cc1	-10%	-10%
COCCCNC(=O)CCCn1c(=O)c2cccn2c2cccnc21	-12%	i
CCOc1ccc(-c2cc(C)[n+](CCc3ccc(OC)c(OC)c3)c(-c3ccc(OCC)cc3)c2)cc1	-8%	-21%
COc1ccc(-n2c(=O)c3c(c4cc(OC)ccc4n3C)n(Cc3ccc(F)cc3Cl)c2=O)cc1	-9%	-10%
O=C1NC[C@H](CCCCN2C[C@H](Cc3ccc(O)cc3)N(CC3CCCCC3)C(=O)C2=O)N(CCc2ccccc2)C1=O	7%	i
CCOc1ccc(NC(=O)CN(C)C(=O)c2ccc(NC3CC3)c([N+](=O)[O-])c2)cc1OCC	-2%	-9%
OC(COCC1COc2ccccc2O1)CN1CCN(c2ccccc2)CC1 (stereo not drawn)	-15%	/
CCCc1cc(=O)[nH]c(SCC(=O)N(CCOC)c2c(N)n(Cc3ccccc3)c(=O)[nH]c2=O)n1	-13%	i
N#C/C(=C\c1ccc(Cl)cc1)C(=O)NC1CC1	-16%	i
Nc1ncc(-c2nnnn2-c2ccc(Cl)cc2)c(-c2ccc(Cl)cc2)n1	?	?
COc1ccc(OCCC(=O)OCc2c(C)noc2C)cc1	-6%	-14%
CCC(=O)OCc1cc2cccc(C)c2[nH]c1=O	-6%	i

Compound	VACV Venus inh	Vaccinia mCherry
CCOc1ccc(C(=O)NCC(c2ccco2)N2CCc3ccccc3C2)cc1 (stereo not drawn)	-24%	-17%
C[C@H](NC(=O)[C@@H]1Cc2ccccc2CN1)C(=O)NC1CCCCC1	-4%	i
Clc1ccc2oc(-c3ccccc3)nc2c1	-6%	-12%
CCOc1ccc(Oc2nc(NCC(C)C)nc(N(C)C)n2)nn1	-12%	/
Cc1cc(C(=O)N2CCc3ccccc32)n(-c2ccccc2)n1	?	-23%
Cc1ccc(C)c(S(=O)(=O)Nc2nc(C)c(C(=O)Nc3ccccc3)s2)c1	-14%	-11%
O=C(Nc1cccc(O)c1)N1CCOCC1	1%	/
C=CCNC(=O)C1=NOC(CNC(=O)c2c(-c3ccccc3Cl)noc2C)C1 (stereo not drawn)	17%	/
CCN(CC(=O)Nc1c(F)cccc1F)C(=O)CSCc1ccc(C)cc1	-20%	i
Cc1nc2c(ccc3c([N+](=O)[O-])cccc32)c(C)c1C	-10%	?
O=C(CCC1CCCC1)N1CCc2c([nH]c3ccccc23)C1c1ccc(Cl)cc1 (stereo not drawn)	8%	i
O=C1c2ccccc2S(=O)(=O)N1CC(O)Cn1c2ccccc2c2ccccc21 (stereo not drawn)	-12%	-17%
COc1ccccc1CN1C2CCCC1CC(NC(=O)/C=C/c1ccccc1)C2 (stereo not drawn)	-14%	-7%
FC(F)(F)c1ccc2c(c1)nc1n2CCCC1	-8%	-14%
Nc1ncnc2c1[nH]c(=O)n2C1CC(O)C(CO)O1 (stereo not drawn)	0%	6%
Cc1c(Cl)cccc1NC(=O)CNS(=O)(=O)c1cccs1	9%	-3%
COc1ccccc1OCCCCN1CCN(C(c2ccccc2)c2ccccc2)CC1	?	?
Cc1nc2ccc(S(=O)(=O)NC(C(=O)NCc3cccs3)C(C)C)cc2s1 (stereo not drawn)	-14%	8%
Oc1c(Cl)cccc1C=Nc1cc(C(F)(F)F)ccc1N1CCCC1	-18%	/
Cc1cn2c(=O)c(C(=O)NCc3ccc4c(c3)OCO4)cnc2s1	-1%	i
CCSc1nnc(NC(=O)CSC2=NN3CCCC(=O)N=C3S2)s1	-1%	i
O=C(CCSCCc1ccncc1)NCCCN1CCOCC1	2%	/
Cc1cccc(N2CC(c3nc4ccccc4n3CCC3CCCCC3)CC2=O)c1 (stereo not drawn)	-29%	-10%
CCc1nc2scc(-c3cccs3)c2c(=O)o1	-1%	/
O=C(C1CCCN(S(=O)(=O)c2cccc3nonc23)C1)N1CCN(c2cccc(C(F)(F)F)c2)CC1 (stereo not drawn)	-26%	-27%

Compound	VACV Venus inh	Vaccinia mCherry
CC[C@H]1OC(=O)C[C@@H](O)[C@H](C)[C@@H](O[C@@H]2O[C@H](C)[C@@H](O[C@H]3C[C@@](C)(O)[C@@H](O)[C@H](C)O3)[C@H](N(C)C)[C@H]2O)[C@@H](CC=O)C[C@@H](C)C(=O)/C=C/C(C)=C/[C@@H]1CO[C@@H]1O[C@H](C)[C@@H](O)[C@@H](OC)[C@H]1OC	-16%&-6%	-6%&-11%
Cc1ccc(-n2cnc3cc(C(=O)NCc4ccccc4Cl)ccc32)c(C)c1	-9%	-10%
O=[N+]([O-])c1cc2no[n+]([O-])c2cc1N1CCCCC1	-11%	i
CN(CC(=O)Nc1ccccc1C(=O)NC1CC1)Cc1ccccc1F	-7%	-16%
CC1(C)CC(=O)c2ccc(OCc3ccc([N+](=O)[O-])cc3)cc2O1	-7%	-1%
CC(C)Cc1nc2cc(NS(=O)(=O)N(C)C)cc(C(=O)N3CCSCC3)c2n1C	1%	-1%
Cc1ccc2c(c1)C1CN(C)CCC1N2C(=S)Nc1cccnc1 (stereo not drawn)	-21%	?
Cc1c(C(=O)O)oc2ccc(S(=O)(=O)NCc3ccc4c(c3)OCO4)cc12	-5%	-8%
Cc1cccc(C(=O)NCCCNC(=O)c2cccc(C)c2)c1	-16%	-2%
Cc1cc(C)nc(N(C#N)Cc2ccc(Cl)cc2)n1	-1%	-1%
CN(CC(=O)Nc1cccc(F)c1)C(=O)CSc1nc2ccccc2s1	-22%	?
O=C(NC(O)C(=O)c1ccccc1)c1ccccn1 (stereo not drawn)	2%	-14%
Cc1nn(C)cc1CNCc1c(C(=O)N2CCCCC2)nc2c(C)cccn12	2%	i
COc1ccc(OCC(=O)Nc2c(Cl)ccc3nsnc23)cc1	-3%	i
O=C(CN1CCN(S(=O)(=O)c2ccc(Cl)cc2)CC1)Nc1ccc2c(c1)OCCO2	-17%	-22%
Cc1ccc(NC(=O)c2cnccn2)c(Br)c1	-20%	-24%
CN(CC(=O)Nc1cccc(F)c1)C(=O)/C=C/c1ccc(S(=O)(=O)N2CCCCCC2)cc1	?	?
CCCCc1c(-c2cccc(OC)c2)ncn1CCc1ccccc1OC	?	-9%
Cc1nnc(NC(=O)CS(=O)(=O)Cc2ccccc2)s1	-11%	-11%
CC(=O)C1=C(O)C(=O)N(CCCCCC(=O)O)C1c1ccc(N(C)C)cc1 (stereo not drawn)	-17%	/
OC(CNCc1ccccc1Cl)COc1ccc(F)cc1 (stereo not drawn)	-3%	-27%
CCOC(=O)N1CCN(c2c(N3CCN(c4cccc(C)c4C)CC3)c(=O)c2=O)CC1	-8%	2%
CCOc1ccc(S(=O)(=O)N(C)c2ccc(OCC(=O)NCC3CCCCC3)cc2)cc1	-20%	-22%
CCN(CC)C(=O)C(=O)N/N=C/c1ccc(Br)cc1	-11%	-16%
COCc1ccc(C(=O)N2CCOc3ccc(CN4CCN(c5ccc(F)cc5)CC4)cc3C2)o1	-31%	-5%

Compound	VACV Venus inh	Vaccinia mCherry
CCc1nnc(NC(=O)C(=O)NCCOC(=O)c2ccccc2Cl)s1	-15%	-12%
COc1ccc(Cn2c(NCC(C)C)nc3c2c(=O)n(C)c(=O)n3C)cc1	18%	13%
CC(=O)c1cccc(OCC(=O)N2CCCc3ccccc32)c1	3%	-13%
C/C(=N\NC(=O)c1nnn(-c2nonc2N)c1-c1ccccc1)c1cccnc1	-4%	-13%
Cc1c(NC(=O)Cc2noc3ccccc23)cccc1[N+](=O)[O-]	-16%	i
Cc1ccccc1Oc1ccc2c(c1)[C@@H]1C[C@H](N(C)C(=O)c3ccco3)[C@H]([C@H](C)O)C(=O)N1CC2	-27%	-20%
CCCCN(C)CCN1C(=O)C2C(C(=O)Nc3ccc(C)cc3)C3C=CC2(O3)C1C(=O)NC1CCCCC1 (stereo not drawn)	-23%	-8%
Cc1ccc(-c2nnc(SCC(=O)Nc3ccccc3F)o2)cc1	-11%	-17%
Cc1cc(OCC(=O)NCc2ccncc2)c2c(C)c(C)c(=O)oc2c1	-9%	-5%
CN(c1ccccc1)S(=O)(=O)c1ccc(Cl)nc1	-28%	?
COc1ccc(CN(C)C(C)C(=O)Nc2ccc(S(=O)(=O)N3CCCCC3)cc2)c(OC)c1 (stereo not drawn)	-7%	?
CCCN1CCN(C(=O)c2ccc(S(=O)(=O)N(C)c3ccccc3OC)cc2)CC1	-9%	i
COCCCNC(=O)C1CCCN(c2ncnc3onc(C)c23)C1 (stereo not drawn)	-19%	-14%
O=C(O)CC/C(=C\c1ccc(N2CCCC2)c([N+](=O)[O-])c1)c1nc2ccccc2s1	0%	i
Nc1nc(=S)c2[nH]cnc2[nH]1	?	?
NNC(=O)c1[nH]c2ccc([N+](=O)[O-])cc2c1-c1ccccc1	-18%	-22%
Cn1c(=O)c2cc(S(=O)(=O)N3CCC(c4ccccc4)CC3)ccc2n(C)c1=O	-7%	-14%
COc1ccccc1NC(=O)c1ccc(NC2=NC3CS(=O)(=O)CC3S2)cc1 (stereo not drawn)	-8%	i
O=[N+]([O-])c1ccccc1Nc1c2ccccc2nc2ccccc12	-14%	?
CCC(CC)c1nnc(NC(=O)CSCC(=O)Nc2cc(C)on2)s1	-20%	-30%
COc1ccc(C2=NC(=O)/C(=C\c3cc(OC)c(OC)c(OC)c3)O2)cc1	-5%	i
COc1ccccc1CCc1nnc(CCC(=O)N(C)Cc2cccc3ncccc23)o1	-14%	-18%
O=C(COc1ccc(S(=O)(=O)N2CCOCC2)cc1)NCCCn1ccnc1	-4%	-17%
CC1(C)CC(=O)C2=C(C1)NC1=C(C(=O)c3ccccc31)C2c1cc([N+](=O)[O-])ccc1O (stereo not drawn)	5%	i
O=C(c1cccc2ccccc12)C1CCCN(C(=O)c2ccc(N3CCOCC3)cc2)C1 (stereo not drawn)	-12%	-11%

Compound	VACV Venus inh	Vaccinia mCherry
O=C(NCC(c1cccs1)S(=O)(=O)c1cccs1)c1ccccc1F (stereo not drawn)	10%	-3%
CCOC(=O)c1nnn2c1nc(N1CCN(c3ccccc3)CC1)c1ccccc12	0%	i
CC1CCN(CC(=O)N(C)c2c(N)n(Cc3ccccc3)c(=O)[nH]c2=O)CC1	-10%	-9%
COc1ccc(N(CC(=O)NC2CCCCC2)S(=O)(=O)c2cccnc2)cc1	-9%	-8%
COc1ccc(C2CC(=O)c3ccc(OC)cc3O2)cc1 (stereo not drawn)	-28%	-20%
CSc1cccc(NC(=S)NCCCN2CCN(c3ccc(F)cc3)CC2)c1	8%	i
Cc1ccc(-n2c(=O)cc(N3CCN(c4ccccc4Cl)CC3)[nH]c2=O)cc1	-12%	-2%
O=[N+]([O-])c1ccc(C2CCCC/C2=N\OCc2cccc(F)c2)c([N+](=O)[O-])c1 (stereo not drawn)	-10%	-15%

Assay outcomes (PubChem BioAssay)
